Assay outcomes as filed in PubChem.
S aureus helic: S. aureus DNA helicase inhibition. purified S. aureus helicase, fluorescence unwinding assay; about half of the hits fall short of the stated cut. inhibition, %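 (tested at about 80 µM)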. actives 0.05% (n = 120,000). AID 485395;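 active = both duplicates at 50% or more, or one of them with a favoured structure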;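 also: 0% = mean of negative control wells and 100% = mean of positive control wells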
MgrA-DNA mod: alters Staphylococcus aureus MgrA binding to DNA; fluorescence polarization; actives 0.13% (n = 84,000); inhibition, %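 (about 10 µg/mL by stock and volumes)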; AID 602314;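 active = above 50% in either of two replicates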;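 also: 0% = protein plus DNA without compound and 100% = DNA alone without protein; higher means less MgrA bound to DNA so lower polarization; one replicate is shown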
* hit, by the source's call; nt = not tested or not shown; & = joins results of further samples. Not all compounds are listed; rates above refer to the full screens.

SMILES	S aureus helic	MgrA-DNA mod
O=C(NC(=S)N1CCOCC1)c1ccccc1	nt	-1.8
COCC(C)Nc1nc(-c2ccc(Cl)cc2)cs1 (stereo not drawn)	10	-1.3
O=C(Nc1ccc(F)cc1)NC1CCCCC1NC(=O)Nc1ccc(F)cc1 (stereo not drawn)	8	nt
CCOCCOC(=O)C1=C(C)NC2=C(C(=O)CC(c3ccc(OC)cc3)C2)C1c1ccc(N(CC)CC)cc1 (stereo not drawn)	nt	1.8
CCCNC(=O)CSc1nc2nc(C)c(Cc3ccccc3C)c(C)n2n1	6	nt
COc1ccc(NC(=O)C(NC(=O)c2ccccc2NC(=O)c2ccco2)C(C)C)cc1 (stereo not drawn)	4	-0.1
CN(C)CCNc1oc(-c2ccc(Cl)cc2)nc1C#N	24	nt
Cc1noc(NS(=O)(=O)c2ccc(NC(=O)NC(C)(C(F)(F)F)C(F)(F)F)cc2)c1C	-24	nt
O=C(COc1ccc(Cl)cc1Cl)Sc1nc2ccccc2o1	-1	nt
CCCc1nc2ccccc2n1CC(=O)N(CCC#N)c1ccccc1	-29	-2.0
Cc1ccc(Cn2nnc3c(=O)[nH]c(C4CCN(S(=O)(=O)/C=C/c5ccccc5)CC4)nc32)cc1	10	-0.9
CCn1c(=S)[nH]c2sc3c(c2c1=O)CCC3	11	6.4
Cc1cc(OC(C)C(=O)N(Cc2ccccc2Cl)C2CCS(=O)(=O)C2)ccc1Cl (stereo not drawn)	-27	nt
CCCn1c(N)c(C(=O)COC(=O)c2ccc(C)c(NC(=O)c3ccco3)c2)c(=O)[nH]c1=O	-9	nt
COCCNC(=O)C1CC(c2c(F)cccc2Cl)=NO1 (stereo not drawn)	9	nt
CC(=O)NCc1cc2cc(Cl)ccc2n1C	-7	-1.9
CCC(=O)Nc1ccc(C(=O)N(CC)C2CCCCC2)cc1	12	1.4
O=C(NC(NCc1ccccc1Cl)(C(F)(F)F)C(F)(F)F)c1ccccc1	9	1.8
CCOC(=O)c1ccc(-c2coc3cc(O)c(CC)cc3c2=O)o1	-19&5	nt
CCOC(=O)c1cnn2c1nc(Sc1ccc(C)cc1)c1ccccc12	nt	-1.0
Cc1cc(C)c2c(=O)c(C#N)coc2c1	7	nt
Cc1cc(=O)[nH]c(NNS(=O)(=O)c2ccc3ccccc3c2)n1	3	nt
O=c1nc(Nc2ccc(OC(F)(F)F)cc2)c2ccccc2o1	nt	-3.1
CC(C)C(NS(=O)(=O)c1cccs1)C(=O)NC1CCCCCC1 (stereo not drawn)	-4	-2.7
O=C(O)C1CCN(S(=O)(=O)c2cccc3nsnc23)CC1	7&6	-3.9
CC(C)(C)c1cc2nc[nH]c(=O)c2s1	nt	-0.1
COc1ccc(NC(=O)C2(N(Cc3ccccc3)C(=O)Cc3nc(N)n[nH]3)CCCCC2)cc1	18	-2.4
CN(CC(=O)Nc1ccccc1C(=O)NC1CC1)Cc1ccco1	3	nt
COC(=O)C1=C(NC(C)=O)CCS1	17	nt
O=C(Cc1ncc(C(F)(F)F)cc1Cl)NCCN1CCCCC1	nt	-0.1
Cc1ccc(Nc2nc(N)nc(CC(=O)CSc3nc4ccccc4s3)n2)cc1	2	0.6
CCn1c(=O)c(=O)[nH]c2cc(C(=O)NC(C)c3ccc(S(N)(=O)=O)cc3)ccc21 (stereo not drawn)	-2	nt
C=CCn1c(SCC(=O)c2ccccc2)nc2c(c1=O)C(C)(C)Cc1ccccc1-2	3	-2.1
CN(C)C(=O)CCc1nc(-c2ccc(C(C)(C)C)cc2)no1	13	nt
CC1=CC(=O)N(c2ccc(F)cc2)C1=O	nt	-1.6
CCOC(=O)c1c(-c2ccccc2)oc2c1cc(OC(=O)c1cccc([N+](=O)[O-])c1)c1ccccc12	nt	-0.3
Cc1cc(C(=O)NCC(C)c2ccccc2)n[nH]1 (stereo not drawn)	-36	nt
O=C(CN1C(=O)/C(=C/c2ccccc2F)Sc2ccccc21)N1CCCC1	23	nt
CCCc1c(C)c(C#N)c2[nH]c3ccccc3n2c1=O	6	nt
CC(C)N(Cc1nnc(-c2ccccc2)o1)C(=O)c1ccccc1	-10	nt

Entries from the list above that contain a halogen, in the order listed:
SMILES	S aureus helic	MgrA-DNA mod
COCC(C)Nc1nc(-c2ccc(Cl)cc2)cs1 (stereo not drawn)	10	-1.3
O=C(Nc1ccc(F)cc1)NC1CCCCC1NC(=O)Nc1ccc(F)cc1 (stereo not drawn)	8	nt
CN(C)CCNc1oc(-c2ccc(Cl)cc2)nc1C#N	24	nt
Cc1noc(NS(=O)(=O)c2ccc(NC(=O)NC(C)(C(F)(F)F)C(F)(F)F)cc2)c1C	-24	nt
O=C(COc1ccc(Cl)cc1Cl)Sc1nc2ccccc2o1	-1	nt
Cc1cc(OC(C)C(=O)N(Cc2ccccc2Cl)C2CCS(=O)(=O)C2)ccc1Cl (stereo not drawn)	-27	nt
COCCNC(=O)C1CC(c2c(F)cccc2Cl)=NO1 (stereo not drawn)	9	nt
CC(=O)NCc1cc2cc(Cl)ccc2n1C	-7	-1.9
O=C(NC(NCc1ccccc1Cl)(C(F)(F)F)C(F)(F)F)c1ccccc1	9	1.8
O=c1nc(Nc2ccc(OC(F)(F)F)cc2)c2ccccc2o1	nt	-3.1
O=C(Cc1ncc(C(F)(F)F)cc1Cl)NCCN1CCCCC1	nt	-0.1
CC1=CC(=O)N(c2ccc(F)cc2)C1=O	nt	-1.6
O=C(CN1C(=O)/C(=C/c2ccccc2F)Sc2ccccc21)N1CCCC1	23	nt

Next part
SMILES	S aureus helic	MgrA-DNA mod
C=C1C2(C(=O)Nc3cc(C)on3)CCC(C2)C1(C)C (stereo not drawn)	3	-2.1
O=C(/C=C/c1ccc(Br)cc1)Nn1c(-c2ccc(F)cc2)nc2ccccc2c1=O	nt	0.0
Cc1ccc(NC(=O)C(=O)NCCN2CCNCC2)cc1	nt	3.5
O=S(=O)(CCSc1ccc(C(F)(F)F)cn1)CCSc1ccc(C(F)(F)F)cn1	nt	-1.5
COc1ccc(OC)c(N=Cc2cc(I)cc(C)c2O)c1	-5	4.8
CN(C(=O)c1ccccc1O)C1CCCCC1	0	3.2
COc1cccc(-n2c(N)cc(=O)n(Cc3ccccc3)c2=O)c1	-17	nt
COc1cc(OC)cc(OC(=O)c2cc(NC(C)=O)cc(NC(C)=O)c2)c1	7	nt
CC(=O)Nc1cccc(-c2nc3ccccc3s2)c1C	9	nt
CCN1C(=O)C(O)(C(C)C(=O)c2ccccc2)c2ccccc21 (stereo not drawn)	-1	-0.2
CN1C(=O)C(=Nc2cccc(Br)c2)c2ccccc21	-20	nt
CC(C)(C)NC(=O)Cc1ccc(S(=O)(=O)N2CCCC2)s1	-22	nt
C=CCC1NC(C)(C)Cc2ccccc21 (stereo not drawn)	-1	-0.2
Clc1ccc(Cn2nnc(N3CCCC3)n2)cc1	nt	0.9
COc1ccccc1NC(=O)NCC(c1ccco1)N(C)C (stereo not drawn)	-14	nt
O=C(Cn1cnc2c(nc3n2CCCCC3)c1=O)NCc1ccco1	-26	nt
CCCCn1nnnc1COC(=O)[C@@H](NS(=O)(=O)c1cccc(Cl)c1)C(C)C	-8	nt
Cc1cc(-n2c(C)cc(C(=O)Cn3cc(S(=O)(=O)N(C)C)ccc3=O)c2C)no1	-6	nt
CC(C)(C)N(N)C(=S)NCc1ccc(F)cc1	17	nt
COc1cc(NC(=O)c2cccs2)c(C(=O)NCCCn2nc(C)cc2C)cc1OC	9	nt
COCCNS(=O)(=O)Cc1ccc(Cl)cc1	7	-1.5
CC(C)(C)n1nc2c(c1NC(=O)C1CC1)CSC2	-2	nt
Cc1ccc(Cl)cc1NC(=O)CC1NC2CCCCC2NC1=O (stereo not drawn)	-21	nt
CN(C)CC1=C(Cl)c2ccccc2S1(=O)=O	nt	4.5
O=c1oc(-c2ccccn2)nc2ccccc12	-1	-1.8
Cc1nn(Cc2ccccc2)c2sc(C(=O)N3CCCC3)cc12	-10	nt
O=C(c1cc(N2CCOCC2)c2nc3ccccc3c(=O)n2c1)c1ccccc1O	12	nt
COc1cccc(NC(=O)COC(=O)c2ccccc2F)c1	-15	0.0
Clc1cccc(-c2n[nH]c(-c3ccccc3)n2)c1	nt	0.8
Cc1nonc1OCCNC(=O)C12CC3CC(CC(C3)C1)C2	20	-0.1
O=S(=O)(/N=C(\Nc1ccncc1)c1ccccc1)c1ccccc1	-1	nt
FC(F)(F)C1CCCNC1 (stereo not drawn)	-5	nt
Cc1nnc(SCC(=O)NC2CCCCC2)n(N)c1=O	2	nt
Cc1cc2cc(C(c3nnnn3Cc3ccco3)N3CCN(C(=O)c4ccco4)CC3)c(=O)[nH]c2cc1C (stereo not drawn)	3	0.3
Cc1nn(-c2ccccc2)c2sc(C(=O)NCCO)cc12	44	nt
Cc1nnc(NC(=O)C2c3ccccc3Oc3ccccc32)s1	-5	nt
O=C(Cc1ccccc1)NC1CCN(S(=O)(=O)c2cccc(F)c2)CC1	6	-2.1
Cc1ccc(-c2ccc(=O)n(CC(=O)N3CCCCC3)n2)cc1	-14	0.1
Nc1ncnc2nc(Sc3ncnc4ccccc34)[nH]c12	2	0.8
COc1ccc(/C=C/C(=O)Nc2ccccc2)cc1	0	nt
CC1CN(CC(=O)NC(c2ccccc2)c2ccccc2)CC(C)O1 (stereo not drawn)	13	nt
O=C(O)c1nsnc1NCCO	7	nt
COc1ccc2nc(NC(=O)CCc3nc(-c4ccccc4F)no3)sc2c1	4	nt
CC(=O)OC[C@H]1O[C@@H](n2cc(Br)c(=O)[nH]c2=O)C[C@@H]1OC(C)=O	23	nt
CCN(CC)c1nc(Cl)nc(N(C)C#N)n1	12	2.0
COc1cccc(CN2CCN(Cc3ccc(F)cc3)C2c2ccc(SC)cc2)c1 (stereo not drawn)	17	2.5
FC(F)(F)c1cnc(N2CCN(Cc3cc(Cl)c4c(c3)OCCCO4)CC2)c(Cl)c1	-2	nt
N#Cc1ccc(CSc2ncc3ccccn23)cc1	-8	nt
O=S(=O)(N=C(NNC(=S)Nc1ccc(F)cc1)NNC(=S)Nc1ccc(F)cc1)c1ccccc1	nt	6.2
O=C(Oc1ccc(C2SCCS2)cc1)c1ccccc1	nt	-0.8
More structures
SMILES	S aureus helic	MgrA-DNA mod
COc1ccc2ccccc2c1/C=C1/SC(=Nc2ccccc2)NC1=O	nt	0.7
Cc1cc(C)n(-c2ncc(C#N)cn2)n1	nt	-0.9
O=c1c2c(nc3nn[nH]n13)CCN(Cc1ccccc1)C2	13	-8.7
CC1=CC(=O)C(CCCCCC2=CC(=O)C(C)=CC2=O)=CC1=O	37	nt
CCOC(=O)C1=C(C)NC(=S)NC1c1ccc(OCC(=O)N2CCCCC2)c(OC)c1 (stereo not drawn)	6	1.8
CCOC(=O)CCCN1C(=O)/C(=C/c2ccc(OC)cc2)SC1=S	-10	nt
O=C1CSC(c2cccnc2)N1c1ccc(Cl)cc1 (stereo not drawn)	nt	-0.1
CCC(=O)Nc1cc(C)cc(C)c1	nt	-0.9
NC(=O)c1cccc(N=Cc2cccc(Cl)c2Cl)c1	11	0.3
CSc1c(C#N)c(=O)[nH]c2sc(C#N)c(N)c12	15	nt

3 compounds from above, sorted by molar mass, lowest first:
SMILES	S aureus helic	MgrA-DNA mod
NC(=O)c1cccc(N=Cc2cccc(Cl)c2Cl)c1	11	0.3
CC1=CC(=O)C(CCCCCC2=CC(=O)C(C)=CC2=O)=CC1=O	37	nt
CCOC(=O)CCCN1C(=O)/C(=C/c2ccc(OC)cc2)SC1=S	-10	nt

Other entries
SMILES	S aureus helic	MgrA-DNA mod
CCOC(=O)c1c(C)[nH]c(C(=O)C(C)OC(=O)[C@H](C)N=C2NS(=O)(=O)c3ccccc32)c1C (stereo partly drawn)	7	nt
COc1ccc(Nc2nnc(-c3ccc(C(=O)NCCO)cc3)c3ccccc23)cc1	4	nt
O=C(OC1CCOC1=O)c1ccccc1 (stereo not drawn)	10	nt
O=[N+]([O-])c1cc(Cl)ccc1Oc1c(Cl)cccc1Cl	nt	1.1
CC1CC(C)CN(Cc2nc(N)nc(Nc3ccc4ccccc4c3)n2)C1 (stereo not drawn)	16	nt
COC(=O)c1cc(OC)c(OC)cc1NC(=S)N1CCN(C)CC1	-4	-4.0
O=C(CSc1cccc[n+]1[O-])Nc1cccc(Oc2ccccc2)c1	13	-0.4
COc1ccc(Cl)cc1N(CC(=O)NCCCC(C)(C)C1OCCO1)S(=O)(=O)c1ccc(C)c([N+](=O)[O-])c1	nt	0.9
CN(C)c1ccc(/C=C2/SC(N3CCN(CCC#N)CC3)=NC2=O)cc1	-204	nt
CCN(C(=O)Cn1c(=O)n(Cc2ccc3c(c2)OCO3)c(=O)c2ccccc21)c1cccc(C)c1	8	-0.2
CCOC(=O)CCCn1nc(C)n2c(cc3sccc32)c1=O	2	nt
Cc1ccccc1C(=O)N1CCC(C(=O)Nc2ccccc2)CC1	-12	nt
Cc1onc(-c2ccccc2)c1C(=O)NC1CCCCC1NC(=O)c1c(-c2ccccc2)noc1C (stereo not drawn)	-18	nt
COc1ccc(N=C2SC(CC(=O)Nc3ccc(F)cc3F)C(=O)N2CCCN2CCOCC2)cc1 (stereo not drawn)	-1	nt
CCOC(=O)NC1Cc2ccccc2C1Sc1ccccn1 (stereo not drawn)	nt	-1.1
Cc1[nH]c(=O)c(C#N)c(C)c1CCC(=O)NC1CCCCCC1	6	nt
O=C(O)Cn1c2ccccc2c2ccccc21	nt	-1.8
CCc1cccc(NS(=O)(=O)c2ccc3[nH]c4c(c3c2)CCCC4)c1	1	-0.4
CCN1CCN(c2sc(S(C)(=O)=O)nc2S(=O)(=O)c2ccc(Cl)cc2)CC1	15	3.2
CC(C)NC(=O)c1ccccc1NC(=O)CN1C(=O)c2cccc3cccc1c23	-4	-5.3
CC1(C)CC(=O)C2=C(C1)OC1=C(C(=O)CC(C)(C)C1)C2c1ccccn1	-21	nt
Cc1ccc(CNCc2cccn2-c2sc(C)c(C)c2C(=O)O)cc1	-14	nt
COc1cc(NCCCC(C)N)c2ncccc2c1 (stereo not drawn)	13	-2.2
